rRNA inh HTS: selective bacterial rRNA inhibition in E. coli; E. coli WT GFP vs humanized-ribosome RFP mutants, fluorescence, 24 h; stronger effect = lower value; DMSO median 0, no signal -100; GFP signal change (wild-type ribosome), % (concentration not given with the values); actives 1.6% (n = 350,000);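 active = significant combined selectivity score with lowered wild-type GFP, culture density cut under 30%, mutant RFP and density less affected; inactive = any of these conditions unmet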; note: one replicate is shown; some compounds called inactive have numbers as strong as hits
E coli growth: E. coli growth inhibition | Escherichia coli growth, OD600, 23 h; stronger effect = lower value | actives 0.21% (n = 330,000) | OD600 absorbance (no concentration beside the values);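 active = OD600 absorbance below the run mean of sample wells minus 3.6 SD, in any replicate, cut at about 0.56 in these data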;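 note: stock transfer was 300 nL into about 60 µL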
Beta2AR agonist: activates human beta-2 adrenergic receptor causing internalization | P07550 | Am2.2-beta2AR cells, FAP receptor internalization, flow cytometry; reference of the scale not given here | response, % (no concentration beside the values) | actives 0.43% (n = 340,000) | AID 504454;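 active = response above a set limit, near 3 SD of response in nonfluorescent compounds, cut at about 42% in these data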;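 note: stock transfer was 100 nL into about 11 µL; a reference agonist was the positive control; negative values mostly stem from fluorescent compounds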
FGF22 binding: shifts melting point of recombinant human FGF22. recombinant FGF22 thermal shift, SYPRO orange fluorescence; percent of sucrose octasulfate shift, DMSO zero. calls only at 9.99 µM. actives 1.5% (n = 340,000). AID 651658;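 active = melting point raised past a set limit in the mean and every replicate; three in four hits are not shown here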
Target sequence (Q9HCT0 whole entry, looked up): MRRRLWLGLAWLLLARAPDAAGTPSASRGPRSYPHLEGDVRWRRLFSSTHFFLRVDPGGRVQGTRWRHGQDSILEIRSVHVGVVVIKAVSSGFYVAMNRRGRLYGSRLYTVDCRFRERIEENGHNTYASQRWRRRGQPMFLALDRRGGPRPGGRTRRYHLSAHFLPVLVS
ALR H2O2 inh: human ALR oxidase inhibition via reduced H2O2; purified ALR, DTT oxidation, H2O2 HRP-luminol luminescence; inhibition, % (test concentration not listed); actives 3.8% (n = 290,000); AID 485317;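 active = mean and each replicate at 75% or more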;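 note: stock transfer was 7.5 nL into about 7.5 µL; 0% = neutral wells and 100% = wells with inactivated enzyme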
UCH37 DUB inh: blocks the human deubiquitinase UCH37; purified proteasome/UCH37, Ub-AMC cleavage fluorescence; actives 0.33% (n = 330,000); AID 588478; Q9Y5K5; inhibition, % (concentration not given with the values);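 active = mean of two replicates above 20%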;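 note: 0% = compound-free wells with enzyme and 100% = wells lacking proteasome; stock transfer was 100 nL into about 20 µL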
Target sequence (Q9Y5K5 whole entry, looked up): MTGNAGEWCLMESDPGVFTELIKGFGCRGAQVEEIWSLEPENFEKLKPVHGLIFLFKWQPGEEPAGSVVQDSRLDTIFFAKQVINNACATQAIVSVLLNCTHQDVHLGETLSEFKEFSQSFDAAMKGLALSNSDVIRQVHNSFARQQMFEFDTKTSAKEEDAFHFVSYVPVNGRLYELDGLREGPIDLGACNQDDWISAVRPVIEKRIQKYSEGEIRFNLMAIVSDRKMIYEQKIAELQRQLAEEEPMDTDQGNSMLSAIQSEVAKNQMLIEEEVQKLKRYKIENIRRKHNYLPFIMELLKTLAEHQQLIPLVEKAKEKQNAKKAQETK
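Material: Human UCH37 enzyme supplied as purified proteasome complex | Schedule: 30 min preincubation with enzyme, 25 min cleavage at room temperature | Detection: AMC fluorescence 355/460 nm | Measure: % inhibition of Ub-AMC cleavage fluorescence | Controls: Wells without proteasome as full block, compound-free enzyme plus substrate as uninhibited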
HNF4A DNA FP: change in binding of human HNF4 alpha to DNA; P41235; HNF4a-FITC DNA binding, fluorescence polarization, 1 h; activity change, % at 10 µM; actives 0.3% (n = 360,000); in the data active = activity change above about 30%, passing the limit was not always enough;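 note: controls were the assay level and a saturating level of protein; the project sought stronger binding though the title names inhibitors; some compounds called inactive have numbers as strong as hits; positive values seem to mean higher polarization but the record does not say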
Target sequence (P41235 whole entry, looked up): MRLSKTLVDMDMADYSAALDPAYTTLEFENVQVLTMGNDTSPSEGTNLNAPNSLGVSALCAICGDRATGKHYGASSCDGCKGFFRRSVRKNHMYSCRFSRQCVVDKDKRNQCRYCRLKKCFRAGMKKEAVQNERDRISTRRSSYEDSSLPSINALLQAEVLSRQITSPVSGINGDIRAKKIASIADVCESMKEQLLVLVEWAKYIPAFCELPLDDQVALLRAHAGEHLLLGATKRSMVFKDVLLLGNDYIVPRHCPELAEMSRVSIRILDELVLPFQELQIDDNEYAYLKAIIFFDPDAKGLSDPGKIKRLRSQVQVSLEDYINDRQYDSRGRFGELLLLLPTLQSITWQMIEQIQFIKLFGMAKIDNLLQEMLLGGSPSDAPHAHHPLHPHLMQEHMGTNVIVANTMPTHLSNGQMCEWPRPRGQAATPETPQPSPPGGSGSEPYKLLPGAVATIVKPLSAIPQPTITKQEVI
rRNA inh HTS OD600: second read-out of rRNA inh HTS, no call of its own (marks repeat the call); OD600 change, %; measured here: OD600 growth;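 optical density of the mix in the first replicate; 0 = DMSO median and -100 = no signal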
rRNA inh HTS RFP: recorded beside rRNA inh HTS, whose call it bears; RFP signal change, %; measured here: RFP humanized mutant strains;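 first replicate; 0 = DMSO median and -100 = no signal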
Active calls of the source: *; i = inactive; x = no result given; & = joins results of further samples. The list is partial; the hit share may differ from the screen's.

SMILES	rRNA inh HTS	rRNA inh HTS OD600	rRNA inh HTS RFP	E coli growth	Beta2AR agonist	FGF22 binding	ALR H2O2 inh	UCH37 DUB inh	HNF4A DNA FP
COc1ccc(/C=C/C(=O)c2ccc[nH]2)c(OC)c1OC	x	x	x	0.69	-3	x	-1	9.7	-2.5
Cn1ccnc1SC(=O)N1c2ccccc2Sc2ccccc21	x	x	x	0.65	3	x	99*	4.2	5.4
COc1ccc(/C=C(/C#N)C(=O)Nc2cc(C)ccc2C)cc1C(=O)O	x	x	x	0.77	-5	x	47	-0.8	3.2
COc1ccc2c(c1)[nH]c1c(=O)n(Cc3ccccn3)cnc12	x	x	x	0.75	-1	x	-14	0.7	3.5
Cc1ccc(C(=O)NCC(=O)NCC(c2ccco2)N2CCCCC2)cc1C (stereo unspecified)	11	14	0.6	0.67	-8	i	x	-0.1	-1.8
COc1ccc(CSc2nc3nc(C)cc(C)n3n2)cc1F	-7	-13	-7.0	0.67	-20	i	-5	5.4	-3.0
CCOCCCn1c(=O)c2ccccc2n2c(=S)[nH]nc12	4	-3	1.1	0.66	-5	i	x	5.2	0.3
CCCN1Cc2cccc(C(=O)Nc3ccc(OC)c(OC)c3)c2C1=O	9	5	5.5	0.72	-4	i	x	-15	-0.5
CCOCCCNC(=O)C1CCC(CNS(=O)(=O)c2cccc3nsnc23)CC1 (stereo unspecified)	x	x	x	0.72	-6	x	-8	6.0	2.0
Cc1nnc(NC(=O)Cn2cnc3c2c(=O)n(C)c(=O)n3C)s1	x	x	x	0.64	7	x	-9	3.0	-1.1
OCCCCNc1cccc2ccccc12	35	2	27	0.72	-3	i	10	i	6.9
CCOC(=O)CSc1nc(C)cc(C)c1C(N)=O	15	15	1.3	0.68	0	i	-19	1.2	9.8
Cc1ccccc1OCCN1CCC(Cc2ccccc2)CC1	-23	-35	5.6	0.67	-2	i	-5	4.8	-3.1
CCOC1=C2[C@@H](CN(S(=O)(=O)c3ccccc3)[C@H]2c2ccccc2)[C@H]2C(=O)N(c3ccccc3)C(=O)[C@H]2C1	-1	9	3.3	x	x	i	x	x	-2.4
Cc1cccnc1NC(=O)c1cc2ccccc2oc1=O	13	8	1.8	0.75	-21	i	1	1.8	-0.1
COc1cccc2cc(C(=O)OCC(=O)NCc3ccc4c(c3)OCO4)c(=O)oc12	14	14	0.8	0.71	10	i	x	1.3	1.5
CC1Cc2ccccc2N1C(=O)COC(=O)c1cccnc1Cl (stereo unspecified)	-6	-9	-2.6	0.73	-2	i	-5	3.7	-1.1
Cc1ccnc(SCC(=O)c2ccc([N+](=O)[O-])cc2)n1	12	11	1.0	0.69	3	i	32	-1.3	0.9
O=C1OCCN1C(=O)[C@H]1[C@H](c2ccc(F)cc2)C(c2ccc(F)cc2)=NN1c1ccc(Br)cc1	x	x	x	x	-217	x	-1	-43	-1.2
Cc1cc(Cl)ccc1OCC(=O)OCC(=O)NC1CCS(=O)(=O)C1 (stereo unspecified)	0	3	-1.8	0.66	3	i	x	4.0	-1.0
Cc1ccc(NC(=O)CC2C(=O)NC3CCCCC3N2C(=O)c2ccc(F)cc2)cc1C (stereo unspecified)	x	x	x	0.71	-6	x	-8	3.2	-0.6
O=C(NCc1ccc(F)cc1)C1CCC(=O)N1CCc1ccccc1 (stereo unspecified)	7	5	1.1	0.73	2	i	-15	2.9	-0.4
CC(=O)Nc1nnc(C)s1	-4	11	-5.4	0.77	-15	i	-9	0.3	-2.7
O=C(CSc1nnc(-c2ccc(O)cc2)o1)Nc1ccccc1	-9	-9	0.5	0.68	9	i	-12	4.3	-0.4
CN1CCN(C(=O)c2ccccc2N(Cc2ccccc2)S(C)(=O)=O)CC1	x	x	x	0.76	5	x	-14	5.6	-1.1
COc1ccc(S(=O)(=O)N2CCCOC2CNC(=O)C(=O)NCCCN2CCOCC2)cc1 (stereo unspecified)	13	12	-2.2	0.64	6	i	-10	2.9	-2.1
CCc1ccc(N2CC(C(=O)Nc3ccc4c(c3)OCCO4)CC2=O)cc1 (stereo unspecified)	-4	1	-3.9	0.68	4	i	-1	4.2	-2.0
Cn1c(SCC(=O)Nc2cccnc2)nnc1-c1ccccc1F	9	12	3.1	0.66	-2	i	-3	0.3	-1.8
O=C(O)c1ccc(OCC2CCCO2)cc1 (stereo unspecified)	5	4	1.4	0.71	-4	i	x	6.8	3.2
CCOc1cccc(NC(=O)/C(C#N)=C/c2cccnc2)c1	1	-9	6.5	0.67	11	i	31	3.6	-5.4
CCCCSc1nnc([C@@H]2CCCN2C(=O)OC(C)(C)C)o1	x	x	x	0.7	-3	x	1	0.9	0.4
CCCCN(Cc1ccco1)S(=O)(=O)c1csc(C(N)=O)c1	-7	-13	-0.1	0.69	-4	i	0	0.4	11
COc1ccc(C(CNC(=O)c2cccc(NS(=O)(=O)c3ccc(Br)cc3)c2)N(C)C)cc1 (stereo unspecified)	-5	0	1.3	0.6	11	x	-4	0.0	-1.0
Cc1ccc(-c2csc(N3CCC(C(N)=O)CC3)n2)cc1	-16	-37	-4.0	0.7	1	i	31	-0.5	-5.6
COc1ccc(-n2nc3c(c2NC(=O)C2CCCC2)CS(=O)(=O)C3)cc1	2	5	-1.9	0.73	-9	i	-4	1.2	-2.1
CCN1CCN(C(=O)NC2CCCCC2)CC1	8	4	0.9	0.66	4	i	2	0.5	-2.2
O=C(O)C1=C[C@H](c2ccc(Br)cc2)C[C@H](OCc2ccc(CO)cc2)O1	-18	-16	-11	x	-2	i	15	6.1	-1.1
Cc1csc(SCC(=O)N(C)C2CCS(=O)(=O)C2)n1 (stereo unspecified)	-1	9	-0.3	0.73	-1	i	x	4.9	-2.0
CC1CC1C(=O)OCC(=O)N(C)c1c(N)n(Cc2ccccc2)c(=O)[nH]c1=O (stereo unspecified)	14	6	1.8	0.68	5	i	-14	-0.2	4.9
CCOC(=O)N1CCC(NS(=O)(=O)c2cc(Br)cnc2N)CC1	x	x	x	0.65	-2	x	-4	-1.4	0.9
CC(=O)Cn1ncc(N2CCOCC2)cc1=O	21	19	5.9	0.7	0	x	-5	-0.3	6.0
COc1ccc(CN2CCN(c3ccccn3)CC2)c(OC)c1C	7&-1	-4&-7	-0.1&-5.9	0.63&0.68	-2&-3	i	3&-3	4.9&1.7	-0.9&-1.1
OC1CCN(CC(O)C(F)(F)F)CC1 (stereo unspecified)	17	12	1.1	0.69	0	i	-16	-0.3	-1.1
CCOC(=O)C1=C(C)NC(C)=C(C(=O)OCC)C1C(=O)OCC(=O)N(C)Cc1ccccc1	11	0	3.4	0.65	-16	i	-1	-22	-3.1
CCOC(=O)c1ncccc1NC(=O)CC(=O)Nc1cccnc1C(=O)OCC	x	x	x	0.64	-11	i	24	-6.2	2.9
O=C(N/N=C/c1ccc(O)c(O)c1)NC12CC3CC(CC(C3)C1)C2	-16	-20	-8.3	x	-2	i	99*	x	0.2
Cc1nc2c(c(=O)n1CCC1=CCCCC1)c1nc3ccccc3nc1n2/N=C/c1ccco1	x	x	x	x	11	x	-2	x	-13
CCN(CC)c1c([N+](=O)[O-])ncn1C	x	x	x	0.83	-3	x	1	5.4	3.0

A few values from above.
Beta2AR agonist result of `COc1ccc(S(=O)(=O)N2CCCOC2CNC(=O)C(=O)NCCCN2CCOCC2)cc1` (stereo unspecified) : 6
ALR H2O2 inh result of `COc1ccc2c(c1)[nH]c1c(=O)n(Cc3ccccn3)cnc12` : -14

Next records follow:
SMILES	rRNA inh HTS	rRNA inh HTS OD600	rRNA inh HTS RFP	E coli growth	Beta2AR agonist	FGF22 binding	ALR H2O2 inh	UCH37 DUB inh	HNF4A DNA FP
O=C(NNC(=O)C1CCN(S(=O)(=O)c2ccc(Cl)cc2)CC1)c1ccncc1	9	1	2.5	0.68	7	i	x	3.1	0.9
O=C(CCCOc1ccccc1)Nc1nccs1	x	x	x	0.69	0	x	-17	-2.4	2.6
CCOC(=O)C1CCCN(S(=O)(=O)c2ccc3c(c2)NC(=O)CO3)C1 (stereo unspecified)	6	10	2.4	0.68	18	i	0	-2.1	8.8
COc1ccc(CN=CC2=C(O)CC(C)(C)CC2=O)cc1	x	x	x	0.69	-9	x	-6	2.5	-1.3
Cc1ccc(O)c(Nc2ncnc3ccc([N+](=O)[O-])cc23)c1	-16	-7	-4.4	0.69	8	i	25	6.6	1.3
Fc1ccc(C(c2nnnn2C2CCCC2)N2CCN(Cc3ccncc3)CC2)cc1 (stereo unspecified)	x	x	x	0.72	1	x	3	2.5	1.1
CC[C@@H]1C=C(C(=O)O)[C@H](c2ccc(C)cc2)N1S(=O)(=O)c1ccc(C)cc1	-2	-3	3.2	0.69	6	i	x	1.0	-1.9
COc1cc(S(=O)(=O)NCc2ccc3c(c2)OCO3)c(OC)cc1C	2	0	-0.7	0.64	0	i	-5	5.4	-0.2
O=C(Oc1ccc(OC(=O)N2CCCCC2)cc1)c1ccccc1	x	x	x	0.71	6	x	1	1.4	-3.4
O=C(NC1CCCc2ccccc21)C1CCC(CNc2c(N3CCOCC3)c(=O)c2=O)CC1 (stereo unspecified)	11	10	-0.1	0.7	-12	i	-8	3.9	1.9
O=C(N/N=C\c1cc2c(cc1Cl)OCO2)c1cccnc1	5	20	-0.4	x	-3	i	-2	x	-1.9
CCOC(=O)C1=C(C)N(C)C(=S)NC1c1cccc(Cl)c1Cl (stereo unspecified)	-24*	-14*	-3.2*	0.66	-12	i	2	0.1	3.2
CCN(CC)c1ccc(C(=C2C=CC(=[N+](CC)CC)C=C2)c2ccc(S(=O)(=O)O)cc2S(=O)(=O)[O-])cc1	-8	254	-24	1.4	-4	i	x	6.3	-3.3
CCCNC(=O)C(=O)NCC1CCCN1CC (stereo unspecified)	12	12	-1.2	0.73	-1	i	0	4.6	0.3
O=C(Nc1cccnc1)c1cc(-c2ccc(Cl)cc2)on1	9	5	1.6	0.69	-7	i	-1	-2.5	1.3
CN1CCN(C(=O)c2ccccc2NC(=O)COc2ccccc2Cl)CC1	8	5	-2.6	0.7	-8	i	1	2.3	1.9
CCCc1nc2cc(C)c(Br)c(C)n2c1CC1CCCCC1	-20*	-4.1*	5.4*	x	x	i	x	x	8.3
COc1cc(CN2CCC(Cc3ccccc3)CC2)c([N+](=O)[O-])cc1OC	-4	2	-11	0.66	-3	i	-31	6.7	1.1
COc1ccc(N(CC(=O)NC2CCS(=O)(=O)C2)S(=O)(=O)c2cc(C)ccc2C)cc1 (stereo unspecified)	x	x	x	0.64	-4	i	7	0.2	-4.7
C=CCN(c1ccccc1)S(=O)(=O)c1cccc(C(=O)NCc2ccco2)c1	-22	-37	-4.6	0.7	-6	i	4	2.0	-0.1

Reformatted field by field: two of the compounds above
> COc1ccc(/C=C(/C#N)C(=O)Nc2cc(C)ccc2C)cc1C(=O)O
  rRNA inh HTS: x; rRNA inh HTS OD600: x; rRNA inh HTS RFP: x; E coli growth: 0.77; Beta2AR agonist: -5; FGF22 binding: x; ALR H2O2 inh: 47; UCH37 DUB inh: -0.8; HNF4A DNA FP: 3.2
> COc1ccc2c(c1)[nH]c1c(=O)n(Cc3ccccn3)cnc12
  rRNA inh HTS: x; rRNA inh HTS OD600: x; rRNA inh HTS RFP: x; E coli growth: 0.75; Beta2AR agonist: -1; FGF22 binding: x; ALR H2O2 inh: -14; UCH37 DUB inh: 0.7; HNF4A DNA FP: 3.5

Printed as active in ALR H2O2 inh (from the list above):
| Structure | rRNA inh HTS | rRNA inh HTS OD600 | rRNA inh HTS RFP | Beta2AR agonist | FGF22 binding | ALR H2O2 inh | UCH37 DUB inh | HNF4A DNA FP |
| --- | --- | --- | --- | --- | --- | --- | --- | --- |
| Cn1ccnc1SC(=O)N1c2ccccc2Sc2ccccc21 | x | x | x | 3 | x | 99* | 4.2 | 5.4 |
| O=C(N/N=C/c1ccc(O)c(O)c1)NC12CC3CC(CC(C3)C1)C2 | -16 | -20 | -8.3 | -2 | i | 99* | x | 0.2 |
